Bioassay records as filed in PubChem.
PINK1 modulator = modulators of PINK1 expression. PINK1 immunofluorescence, high-content cytometry, 24 h. Potency, µM (top dose mostly 76.6 µM), for inactives: at the top dose activation (PINK1 increase), most hits filed as activators. 410,000 tested, 0.2% active; active = well fitted activation curve with a large enough effect; inconclusive = small, poorly fitted or top-dose-only effect; inactive = flat fitted curve, though single readings scatter; cell line not stated here;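 also: potency is read from the fitted curve at half-maximal effect; % of control where 0% means no effect; nearly all actives have a fitted effect of over 65% in size; a mitochondrial uncoupler was the plate control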
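A stable cell line was treated with compounds at 5 concentrations for 24 hours, with CCCP as control. PINK1 levels and mitochondrial localization were measured by immunofluorescence with mitochondrial, cell and nuclear markers after fixation, read by laser-scanning cytometry.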
CtBP-E1A blk = inhibitors of CtBP/E1A interaction; AlphaScreen GST-E1A/His-CtBP binding, 1536-well; hits give low values; control for the full effect not named in the record; activity change, % (no concentration beside the values); 340,000 tested, 0.49% active; AID 651724; in the data active means activity change below about -65%; inconclusive means about -30% to -65%; inactive means above about -30%; also: % is scaled to controls: 0 for no effect and ±100 for the full control effect; compound concentration not given in the record
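Homogeneous bead-based format: GST-tagged E1A captured on glutathione donor beads, His-tagged CtBP on nickel acceptor beads; compounds precede bead addition by 2 h at 37 °C.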
TRPML1 ag = agonists of human TRPML1 channel. Q9GZU1. TRPML1-expressing cells, Ca2+ dye fluorescence, FDSS; host cell line not named in the record; reference of the full effect not given here. activation, % (no concentration beside the values). 410,000 tested, 0.12% active. AID 624414; in the data active = activation above about 50%; inconclusive = about 30% to 50%; inactive = below about 30%; also: 0% is about no effect; the text of the record puts the active cut at 80%
Target sequence (Q9GZU1 whole entry, looked up): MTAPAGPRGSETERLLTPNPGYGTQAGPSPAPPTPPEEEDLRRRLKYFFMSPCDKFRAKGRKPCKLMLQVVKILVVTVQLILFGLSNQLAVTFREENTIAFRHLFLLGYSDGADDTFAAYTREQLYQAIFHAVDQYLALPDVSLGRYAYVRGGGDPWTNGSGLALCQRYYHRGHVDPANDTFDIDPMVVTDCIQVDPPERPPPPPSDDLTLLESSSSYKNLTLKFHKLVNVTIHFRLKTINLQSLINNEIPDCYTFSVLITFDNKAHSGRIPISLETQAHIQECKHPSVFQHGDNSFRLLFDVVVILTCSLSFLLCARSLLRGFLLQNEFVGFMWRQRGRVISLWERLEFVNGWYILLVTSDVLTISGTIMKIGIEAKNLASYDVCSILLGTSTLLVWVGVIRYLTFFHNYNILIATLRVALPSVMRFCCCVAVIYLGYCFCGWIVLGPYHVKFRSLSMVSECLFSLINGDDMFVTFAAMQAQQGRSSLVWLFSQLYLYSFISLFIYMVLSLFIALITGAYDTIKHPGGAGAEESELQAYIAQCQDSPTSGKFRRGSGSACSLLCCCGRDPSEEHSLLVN
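In this qHTS format, compounds were pin-transferred onto Ca8-dye-loaded TRPML1-DL cells induced with Tet overnight, and intracellular Ca2+ fluorescence was recorded kinetically for 110 s after a 10 s baseline. A subsequent 4uM final 54-4 (EC80) addition followed by a second 110 s read served as the antagonist phase.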
Six1-Eya2 blk = Six1/Eya2 interaction inhibition. AlphaScreen GST-Six1/His-Eya2 binding, biochemical; hits give low values; control for the full effect not named in the record. activity change, % (concentration not given with the values). 360,000 tested, 0.56% active. AID 651725; in the data active = activity change below about -65%; inconclusive = about -30% to -65%; inactive = above about -30%; also: % is scaled to controls: 0 for no effect and ±100 for the full control effect
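Compounds are tested against tagged Six1 and Eya2 proteins bridged by glutathione donor and nickel acceptor beads; after a one-hour incubation at 37 °C without light, AlphaScreen emission is recorded.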
TRPML1 blocker = blocks the human TRPML1 channel | Q9GZU1 | TRPML1-inducible cells, Ca2+ dye fluorescence, FDSS; hits give low values; inhibition of EC80 agonist-evoked calcium signal | activity change, negative = inhibition, % (test concentration not listed) | 390,000 tested, 0.02% active | AID 624415; in the data active means activity change below about -50%; inconclusive means about -30% to -50%; inactive means above about -30%;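 also: stimulus is agonist 54-4 at its EC80 concentration; % is scaled to controls: 0 for no effect and ±100 for the full control effect; compound concentration not given in the record; the text of the record puts the active cut at -80%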
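Calcium fluorescence in TRPML1-DL cells induced overnight with Tet: a 110 s read after compound pin addition, then a 110 s antagonist read after challenge with 54-4 at 4 uM final (EC80).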
D2 ag = agonists of human D2 dopamine receptor (beta-arrestin); P14416; DiscoveRx PathHunter D2 beta-arrestin, luminescence, 90 min; 100% = 57 uM dopamine signal; activation, % (concentration not given with the values); 360,000 tested, 0.084% active; in the data active = activation above about 40%; inconclusive = about 15% to 40%; inactive = below about 15%; also: compound concentration not given in the record; the text of the record calls up to 30% inactive
Target sequence (P14416 whole entry, looked up): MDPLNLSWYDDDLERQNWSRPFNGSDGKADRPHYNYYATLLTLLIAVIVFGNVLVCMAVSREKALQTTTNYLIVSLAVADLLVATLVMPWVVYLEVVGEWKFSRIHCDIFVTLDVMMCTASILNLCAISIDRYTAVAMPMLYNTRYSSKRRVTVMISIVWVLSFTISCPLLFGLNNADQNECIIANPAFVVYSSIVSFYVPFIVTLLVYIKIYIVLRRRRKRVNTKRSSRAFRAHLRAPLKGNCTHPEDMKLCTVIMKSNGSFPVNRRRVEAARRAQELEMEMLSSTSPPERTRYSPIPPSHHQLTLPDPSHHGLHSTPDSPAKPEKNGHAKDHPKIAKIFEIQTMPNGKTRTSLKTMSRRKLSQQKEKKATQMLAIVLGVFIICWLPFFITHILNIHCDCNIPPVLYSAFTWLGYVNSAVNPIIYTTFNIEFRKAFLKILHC
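Agonist mode: compounds alone added to overnight-plated D2 PathHunter cells for 90 min at 37 C, with 57 uM final dopamine (EC100) defining full response. Beta-arrestin recruitment detected by chemiluminescent reagent, read after 1 h at ambient temperature.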
Active calls of the source: *; [ ] = remark or other dose. Rows were taken by chance. About 1% of those tested had a hit in this group.

For Cc1ccc2c(c1)c1c3n2CCN(C(=O)c2cccc(C(F)(F)F)c2)C3CCC1 (configuration not stated) the results were PINK1 modulator 0.8%, TRPML1 ag inconclusive and TRPML1 blocker -12.
O=C(Cn1ccsc1=NC(=O)c1ccco1)c1ccccc1 was read as PINK1 modulator -0.7%, CtBP-E1A blk -3, TRPML1 ag -0.2, Six1-Eya2 blk -2, TRPML1 blocker 16 and D2 ag -1.9.
For COc1ccc2oc3ccccc3c(=O)c2c1 the results were PINK1 modulator -2.0%, CtBP-E1A blk 7, TRPML1 ag 2.6, Six1-Eya2 blk -1, TRPML1 blocker 19 and D2 ag -0.4.
Screening O=Cc1nc(-c2ccc(Cl)cc2)n2ccccc12 returned PINK1 modulator 0.7%, CtBP-E1A blk -12, TRPML1 ag 0.2, Six1-Eya2 blk -9, TRPML1 blocker -1 and D2 ag -0.7.
Screening N#Cc1cc(Oc2cccc3cccnc23)c(-n2nnc3ccccc32)cc1C#N returned PINK1 modulator -1.3%[38.3 µM], CtBP-E1A blk 0, TRPML1 ag 6.9, Six1-Eya2 blk 0, TRPML1 blocker 11 and D2 ag -0.3.
CCN(CC)CCNC(=O)C(=O)NCC1OCCN1S(=O)(=O)c1ccc2c(c1)OCCO2 (configuration not stated) was read as PINK1 modulator -1.6%, CtBP-E1A blk 2, TRPML1 ag 1.7, Six1-Eya2 blk 8, TRPML1 blocker 1 and D2 ag -2.3.
Cc1cc(C)cc(N(CC(=O)NCc2cccnc2)S(C)(=O)=O)c1 was read as CtBP-E1A blk 10, TRPML1 ag -0.6, Six1-Eya2 blk 0, TRPML1 blocker -7 and D2 ag 0.8.
`CC1CCCC(C)N1C(=O)COC(=O)CCC1CCCC1` (configuration not stated) gave PINK1 modulator -2.8%, CtBP-E1A blk 1, TRPML1 ag 0.6, Six1-Eya2 blk 1, TRPML1 blocker 11 and D2 ag -0.5.
Cc1cc(C(=O)CSc2nnc(-c3ccccc3)o2)c(C)n1CC1COc2ccccc2O1 (configuration not stated) was read as PINK1 modulator 4.0%, CtBP-E1A blk -2, TRPML1 ag -0.9, Six1-Eya2 blk -4, TRPML1 blocker 14 and D2 ag 1.4.
Screening NS(=O)(=O)c1ccc(NS(=O)(=O)c2cccs2)cc1 returned PINK1 modulator 4.7%[38.3 µM], CtBP-E1A blk 9, TRPML1 ag 0.4, Six1-Eya2 blk -1, TRPML1 blocker -15 and D2 ag 0.8.
Screening Cc1nc(-c2ccc(O)c(O)c2)cs1 returned PINK1 modulator -0.2%, CtBP-E1A blk -3, TRPML1 ag -1.0, Six1-Eya2 blk -4, TRPML1 blocker 5 and D2 ag 5.6.
For O=C(CSCC(=O)NN=Cc1ccccc1O)NN=Cc1ccccc1O the results were PINK1 modulator -2.0%, CtBP-E1A blk -4, TRPML1 ag 0.1, Six1-Eya2 blk -83*, TRPML1 blocker 10 and D2 ag 1.3.
Cc1[nH]nc(SCC(=O)N2CCOCC2)c1[N+](=O)[O-] was read as PINK1 modulator -0.9%, CtBP-E1A blk -5, TRPML1 ag 0.2, Six1-Eya2 blk 3, TRPML1 blocker 12 and D2 ag -1.5.
For COc1ccc(C(=O)C2CCN(C(=O)c3ccc(C)cc3)CC2)cc1 the results were PINK1 modulator -5.0%, CtBP-E1A blk 3, TRPML1 ag 1.4, Six1-Eya2 blk 3, TRPML1 blocker -2 and D2 ag -0.3.
For Cc1ccc(-n2nc3c(=O)n(CCCC(=O)NCC(C)c4ccccc4)nc(C)c3c2C)cc1 (configuration not stated) the results were PINK1 modulator 2.3%, TRPML1 ag 1.8, Six1-Eya2 blk -1, TRPML1 blocker 0 and D2 ag -7.1.
For CC(=O)Nc1ccc(NC(=O)c2c(C)nn(Cc3ccccc3)c2Cl)cc1 the results were PINK1 modulator 3.9%, CtBP-E1A blk -2, TRPML1 ag 0.2, Six1-Eya2 blk 2, TRPML1 blocker 19 and D2 ag 3.7.
COc1ccc(N2CC(C(=O)Nc3ccc(S(=O)(=O)N4CCOCC4)cc3)CC2=O)cc1 (configuration not stated) was read as PINK1 modulator 2.4%, CtBP-E1A blk 4, TRPML1 ag -0.4, Six1-Eya2 blk -2, TRPML1 blocker 9 and D2 ag 3.9.
Screening Cn1c(-c2ccc(F)cc2)cnc1NCc1cccc(F)c1 returned PINK1 modulator 1.6%, CtBP-E1A blk 1, TRPML1 ag 0.0, Six1-Eya2 blk -4, TRPML1 blocker -4 and D2 ag -5.5.
For CC1(C)CC(=O)C=C(Nc2ccccc2O)C1 the results were PINK1 modulator -0.6%, CtBP-E1A blk 16, TRPML1 ag -0.7, Six1-Eya2 blk -1, TRPML1 blocker -18 and D2 ag -3.6.
`COc1ccc2[nH]c(=O)c(CN(CCO)C(=O)NCc3ccccc3)cc2c1` gave PINK1 modulator -3.0%[38.3 µM], CtBP-E1A blk -13, TRPML1 ag -0.6, Six1-Eya2 blk -2, TRPML1 blocker 2 and D2 ag 2.0.
Screening COc1ccccc1NC(=O)CN(c1cc(C)cc(C)c1)S(=O)(=O)c1c(C)[nH]c(=O)[nH]c1=O returned PINK1 modulator 2.2%, TRPML1 ag -1.0 and TRPML1 blocker -2.
Screening O=c1cc(Cn2nnc(-c3ccc(Cl)cc3)n2)nc2sccn12 returned PINK1 modulator -2.3%, CtBP-E1A blk -1, TRPML1 ag 0.1, Six1-Eya2 blk 0, TRPML1 blocker 18 and D2 ag -0.9.
`CN1CCC(=NNC(=O)CN(c2cccc(Br)c2)S(C)(=O)=O)CC1` gave PINK1 modulator -0.8%, CtBP-E1A blk 3, TRPML1 ag -0.5, Six1-Eya2 blk -2, TRPML1 blocker 36 and D2 ag -1.1.
`COc1ccc(CNC(=O)c2cccc(NC3=NC4CS(=O)(=O)CC4S3)c2)cc1` (configuration not stated) gave PINK1 modulator -0.4%, CtBP-E1A blk 3, TRPML1 ag -0.3, Six1-Eya2 blk -2, TRPML1 blocker 6 and D2 ag -1.1.
`O=S(=O)(c1cccc(-c2nnc(SCc3nc4ccccc4s3)o2)c1)N1CCOCC1` gave PINK1 modulator 0.8%, CtBP-E1A blk -9, TRPML1 ag 0.8, Six1-Eya2 blk -23, TRPML1 blocker 10 and D2 ag -4.3.
Screening COc1ccc(C(=O)NNC(=O)CCC(=O)Nc2ccc(C)cc2C)cc1 returned PINK1 modulator 0.1%, CtBP-E1A blk 3, TRPML1 ag -0.4, Six1-Eya2 blk 5, TRPML1 blocker 1 and D2 ag 1.4.
CCOc1ccc(Cc2nc(C)c(CC(=O)N3CCOCC3)c(=O)[nH]2)cc1 was read as PINK1 modulator -1.2%, CtBP-E1A blk 3, TRPML1 ag -0.2, Six1-Eya2 blk 1, TRPML1 blocker -9 and D2 ag -1.3.
For C=CCN(C(=O)C1CC(=O)N(C2CCCC2)C1)c1nc(-c2ccc(S(C)(=O)=O)cc2)cs1 (configuration not stated) the results were PINK1 modulator -3.5%, CtBP-E1A blk -1, TRPML1 ag -0.4, Six1-Eya2 blk -1, TRPML1 blocker -1 and D2 ag inconclusive.
`O=C1CN(C(=O)c2ccc(S(=O)(=O)N3CCCCC3)cc2)C(c2ccc(F)cc2)c2cc(Br)ccc2N1` (configuration not stated) gave PINK1 modulator -1.9%, TRPML1 ag 4.2 and TRPML1 blocker 0.
`O=C1C2C3C=CC(CC3)C2C(=O)N1c1ccc(F)cc1` (configuration not stated) gave PINK1 modulator -0.7%, CtBP-E1A blk 9, TRPML1 ag -0.1, Six1-Eya2 blk 15, TRPML1 blocker 0 and D2 ag 0.1.

The final 4 records of the section before are carried over, then new ones follow.
CCOc1ccc(Cc2nc(C)c(CC(=O)N3CCOCC3)c(=O)[nH]2)cc1 was read as PINK1 modulator -1.2%, CtBP-E1A blk 3, TRPML1 ag -0.2, Six1-Eya2 blk 1, TRPML1 blocker -9 and D2 ag -1.3.
For C=CCN(C(=O)C1CC(=O)N(C2CCCC2)C1)c1nc(-c2ccc(S(C)(=O)=O)cc2)cs1 (configuration not stated) the results were PINK1 modulator -3.5%, CtBP-E1A blk -1, TRPML1 ag -0.4, Six1-Eya2 blk -1, TRPML1 blocker -1 and D2 ag inconclusive.
`O=C1CN(C(=O)c2ccc(S(=O)(=O)N3CCCCC3)cc2)C(c2ccc(F)cc2)c2cc(Br)ccc2N1` (configuration not stated) gave PINK1 modulator -1.9%, TRPML1 ag 4.2 and TRPML1 blocker 0.
`O=C1C2C3C=CC(CC3)C2C(=O)N1c1ccc(F)cc1` (configuration not stated) gave PINK1 modulator -0.7%, CtBP-E1A blk 9, TRPML1 ag -0.1, Six1-Eya2 blk 15, TRPML1 blocker 0 and D2 ag 0.1.
O=C(CSc1nnc(-c2cccc(S(=O)(=O)N3CCCC3)c2)n1-c1ccccc1)Nc1ccc(C(=O)O)cc1 was read as PINK1 modulator 1.4%, CtBP-E1A blk -17, TRPML1 ag 0.5, Six1-Eya2 blk -5, TRPML1 blocker -15 and D2 ag -1.8.
`CCN(CC)c1ccc(C=C2C(=O)OC(C)(C(C)(C)C)OC2=O)cc1` (configuration not stated) gave PINK1 modulator 1.8%, CtBP-E1A blk 5, TRPML1 ag 0.7, Six1-Eya2 blk 5, TRPML1 blocker 14 and D2 ag 1.8.
For COc1ccc(CCNC(=O)CCCn2c(=O)c3ccccc3n(Cc3ccc(F)cc3Cl)c2=O)cc1OC the results were PINK1 modulator 0.3%, TRPML1 ag -0.4 and TRPML1 blocker -7.
`N#CCNC1CC(=O)N(c2ccccc2)C1=O` (configuration not stated) gave PINK1 modulator -1.3%, TRPML1 ag -0.9, Six1-Eya2 blk 12, TRPML1 blocker 8 and D2 ag -2.6.
For Cc1ccc(/C=N/N2CCN(c3ccncc3S(=O)(=O)N3CCCCC3)CC2)cc1 the results were PINK1 modulator 3.8%, CtBP-E1A blk 4, TRPML1 ag 0.8, Six1-Eya2 blk -2, TRPML1 blocker 25 and D2 ag -3.1.
COc1ccc(NC(=O)c2cnn(-c3ccc(C)c(C)c3)c2C2CCNCC2)cc1OC was read as PINK1 modulator -0.1%, TRPML1 ag -0.9 and TRPML1 blocker -13.
`COC(=O)[C@]1(Cc2ccccc2)N[C@H](CN(C)C(=O)Nc2ccc(Cl)cc2)[C@@H]2C(=O)N(C)C(=O)[C@@H]21` gave PINK1 modulator -0.5%, CtBP-E1A blk -24, TRPML1 ag 0.7, Six1-Eya2 blk 3, TRPML1 blocker -20 and D2 ag -0.4.
For CCCNC(=S)N1CCC(C(=O)c2ccc(OC)cc2)CC1 the results were PINK1 modulator 1.2%, CtBP-E1A blk 5, TRPML1 ag 0.8, Six1-Eya2 blk -1, TRPML1 blocker 16 and D2 ag -0.1.
For Cc1nn(-c2ccccc2)c(C)c1NC(=O)COC(=O)/C=C/c1ccccc1 the results were PINK1 modulator -1.4%, CtBP-E1A blk 0, TRPML1 ag -0.1, Six1-Eya2 blk 4, TRPML1 blocker 21 and D2 ag 4.1.
For O=C(c1ccco1)N1CCN(C(=S)Nc2ccc(F)cc2)CC1 the results were PINK1 modulator -0.7%, CtBP-E1A blk 0, TRPML1 ag -0.3, Six1-Eya2 blk 8, TRPML1 blocker 8 and D2 ag -1.4.
